PrP 5UTR inh = suppresses PrP 5' UTR mRNA reporter expression | actives 0.35% (n = 340,000) | cell-based PrP 5' UTR mRNA reporter, plate reader | AID 488862 | inhibition, % (test concentration not listed);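 active = every replicate at 50% or more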;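 note: 0 = median of the neutral control wells; tested in H4 reporter cells; numbers are from one replicate; inactives centre near -14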
Bead autofluor = counter-screen for toxin protease inhibitors: compound fluorescence; compound autofluorescence counterscreen, microsphere flow cytometry; active compounds read high; fluorescence intensity (no concentration beside the values); actives 3.1% (n = 360,000);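 active = at least 3 SD above the mean of all compounds, about 16000 in these data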;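 note: 100 nL of 1 mM stock went into each well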
BJeLR viability = BJeLR cell viability loss; inhibition, % (test concentration not listed); AID 1554; BJeLR (HRASV12) viability, CellTiter-Glo ATP luminescence, 48 h; reference of the scale not given here; actives 0.17% (n = 300,000);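 active = replicate mean above 50%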;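 note: 50 nL library stock added to about 25 µL; numbers are from one replicate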
Sa ugtP lethal = compounds lethal to S. aureus RN4220 ugtP deletion mutant; growth inhibition, % (concentration not given with the values); OD600 growth, 16 h; some inactives read as strong as hits; actives 0.54% (n = 330,000);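 active = z-score under -3 and OD600 up to 0.15 on both plates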;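 note: plate controls were untreated wells for no effect and antibiotic for full effect; wells of about 80 µL received 100 nL stock; the first replicate is given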
RN4220 kill = S. aureus RN4220 growth inhibition | OD600, 16 h | inhibition, % (no concentration beside the values) | actives 0.33% (n = 330,000);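 active = z-score of -3 or lower and OD600 up to 0.18 on both plates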;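 note: plate controls were untreated cells for no effect and reference antibiotic for full effect; stock transfer was 100 nL into about 80 µL; one replicate is shown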
Mtb hypoxia rep = reduces hypoxia-regulated biosensor signal in M. tuberculosis; M. tuberculosis hypoxia-regulated fluorescent reporter, fluorescence; fluorescence inhibition, % (concentration not given with the values); actives 0.1% (n = 300,000); AID 1159583;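 active = 35 to 45% if threefold the growth effect, above 45% if 1.5-fold the growth effect; inactive = the rest, general growth blockers included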;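 note: wells of about 50 µL received 100 nL stock; 0% = vehicle wells and 100% = reference inhibitor wells; whole bacteria with a GFP reporter of the hypoxia response; strong numbers were not always called active; many hits fall short of the cut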
Mtb hypoxia rep growth = further read-out of Mtb hypoxia rep, marked with its call; growth inhibition, %; measured here: M. tuberculosis growth (absorbance);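 0% = vehicle and 100% = reference antibiotic; read after six days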
Numbers without * were called inactive; . = no result given.

Preview (eleven entries):
Value order: PrP 5UTR inh, Bead autofluor, BJeLR viability, Sa ugtP lethal, RN4220 kill, Mtb hypoxia rep, Mtb hypoxia rep growth
CC(CC(=O)O)CC1=NS(=O)(=O)c2ccccc2N1 (centres undefined)
    -13, 4126, -10, -3, 2.0, 5, 20
CC(=O)c1c(C)n(Cc2ccccc2)c2ccc(O)cc12
    -23, 5033, 15, -4, -0.8, 2, -3
O=C(ON=C1CCN(S(=O)(=O)c2ccccc2)CC1)c1ccccc1
    -23, 9077, -11, 9, 2.1, 5, 2
COc1cccc(OCCNCc2ccccc2)c1
    -34, 3829, 8, 8, -2.5, 6, -1
CCCCn1c(N)c(N(CCOC)C(=O)CSc2nc3ccc(C)cc3[nH]2)c(=O)[nH]c1=O
    -21, 4088, 11, 7, 4.8, 5, 1
O=C(NNS(=O)(=O)c1ccccc1)c1ccc([N+](=O)[O-])cc1
    -19, 3173, -4, 3, 1.0, -4, 7
CC(C)(C)C(=O)Nc1ccc(C(=O)CSc2nnc(C3CC3)n2C2CC2)cc1
    -16, 2884, ., 0, -2.6, -2, 3
Cc1cc(C)c(NC(=O)C2CC3CCC2C3)c(C)c1 (centres undefined)
    -24, 3051, -2, 7, 9.8, 0, -2
O=C(/C=C/c1ccc(F)cc1)OCC(=O)c1ccc[nH]1
    -17, 3442, ., 2, 4.9, 2, -1
COC(=O)C1C[C@]2(C(=O)O)c3ccccc3N(OOSc3ccccc3)C2N1C(=O)OC (some centres undefined)
    ., ., ., 0, 2.8, 11, 14
CC(NS(=O)(=O)c1ccccc1)C(=O)NCCc1ccccn1 (centres undefined)
    -12, 3289, 4, 7, -1.6, 12, 7

This part in full, from the start:
Value order: PrP 5UTR inh, Bead autofluor, BJeLR viability, Sa ugtP lethal, RN4220 kill, Mtb hypoxia rep, Mtb hypoxia rep growth
CC(CC(=O)O)CC1=NS(=O)(=O)c2ccccc2N1 (centres undefined)
    -13, 4126, -10, -3, 2.0, 5, 20
CC(=O)c1c(C)n(Cc2ccccc2)c2ccc(O)cc12
    -23, 5033, 15, -4, -0.8, 2, -3
O=C(ON=C1CCN(S(=O)(=O)c2ccccc2)CC1)c1ccccc1
    -23, 9077, -11, 9, 2.1, 5, 2
COc1cccc(OCCNCc2ccccc2)c1
    -34, 3829, 8, 8, -2.5, 6, -1
CCCCn1c(N)c(N(CCOC)C(=O)CSc2nc3ccc(C)cc3[nH]2)c(=O)[nH]c1=O
    -21, 4088, 11, 7, 4.8, 5, 1
O=C(NNS(=O)(=O)c1ccccc1)c1ccc([N+](=O)[O-])cc1
    -19, 3173, -4, 3, 1.0, -4, 7
CC(C)(C)C(=O)Nc1ccc(C(=O)CSc2nnc(C3CC3)n2C2CC2)cc1
    -16, 2884, ., 0, -2.6, -2, 3
Cc1cc(C)c(NC(=O)C2CC3CCC2C3)c(C)c1 (centres undefined)
    -24, 3051, -2, 7, 9.8, 0, -2
O=C(/C=C/c1ccc(F)cc1)OCC(=O)c1ccc[nH]1
    -17, 3442, ., 2, 4.9, 2, -1
COC(=O)C1C[C@]2(C(=O)O)c3ccccc3N(OOSc3ccccc3)C2N1C(=O)OC (some centres undefined)
    ., ., ., 0, 2.8, 11, 14
CC(NS(=O)(=O)c1ccccc1)C(=O)NCCc1ccccn1 (centres undefined)
    -12, 3289, 4, 7, -1.6, 12, 7
NC(=S)N/N=C/c1cn(-c2ccccc2)nc1-c1cccnc1
    -47, 3896, 11, ., ., ., .
CCC(C)NCCCCOc1ccc(Cl)cc1C (centres undefined)
    -32, 2479, -8, -7, 0.4, 12, 18
CCCN(CC(=O)Nc1cc(Cl)ccc1Cl)C(=O)/C=C/c1cc(OC)ccc1OC
    -22, 5798, ., -9, 14, -1, 3
COc1ccccc1OS(=O)(=O)c1ccc(NC(C)=O)cc1
    -2, 4365, -1, -3, 7.9, -2, 5
Cc1cc(/C([O-])=C(/C(=S)Nc2ccc(F)cc2)[n+]2ccccc2)c(C)n1Cc1ccccc1Cl
    -16, 4365, -5, ., ., ., .
COc1cc(C(=O)NCC2CCCO2)ccc1OCc1ccc(Cl)cc1Cl (centres undefined)
    -12, 5483, -13, -2, 6.2, 10, 1
Fc1ccc2nc(Nc3ccccc3)sc2c1
    -93, 3639, 3, -1, -1.3, 0, 0
COc1ccccc1C(=O)Nc1ccc(N2CCCCC2)cc1
    -63, 3114, 5, -2, 0.1, ., .
COc1cccc(/C=N/NC(=O)C(=O)N/N=C/c2cccc(OC)c2OC)c1OC
    -27, 9722, -7, ., ., ., .
Cc1ccc(C(=O)NC2=NCCS2)cc1Cl
    -74, 3512, 8, 12, 5.0, 8, 5
CN(CC1CCOCC1)C(=O)CC1C(=O)NCCN1Cc1cccc(C(F)(F)F)c1 (centres undefined)
    1, 6058, -7, 0, 2.6, 6, 12
COc1ccc(C=C2SC(=O)NC2=O)cc1OC
    -21, 3618, ., 4, 7.3, 20, 14
CCOC(=O)CSc1nc(-c2ccccc2)nc2c1oc1ccccc12
    -3, 2585, -1, -6, 6.6, ., .
COc1cc2c(cc1NC(=O)COc1ccccc1OC)oc1ccccc12
    -26, 20273*, 6, -4, 8.4, -5, 2
Cn1c(N)c(C(=O)COC(=O)Cc2ccccc2F)c(=O)n(C)c1=O
    -27, 3777, ., 2, 5.5, 1, 0
CN(C)c1ccc(C=NNC(=O)c2ccc(Cl)cc2)cc1
    ., ., ., 7, 2.7, 7, 3
O=C(N/N=C/C=C/c1ccccc1)NC1CCCCC1
    -34, 3276, 2, ., ., ., .
CCn1c(SCC(=O)NC2CC2)nnc1-c1cccs1
    -9, 7427, ., -1, 1.5, 17, 41
COc1ccccc1NC(=O)CCCC(=O)OCC(F)(F)C(F)F
    -20, 6839, -7, 14, 1.5, 6, -2
Cc1ccc(C(=O)Nc2ccc3ccccc3n2)cc1
    -32, 3942, 12, -1, 6.7, 5, 17
O=C(NCc1ccccc1Cl)c1ccc(NC2=NC3CS(=O)(=O)CC3S2)cc1 (centres undefined)
    -7, 4505, -4, 3, 6.9, 0, 3
CCSc1nsc(SCC)c1C(N)=O
    -29, 4073, -6, -4, 7.1, 10, 18
CCCCN1C(=N)N(C(C)CN2CCCC2CN2C(N)=NCC2CC(C)C)CC1Cc1ccccc1 (centres undefined)
    ., ., ., -1, -4.5, -7, 12
O=C(O)Cn1c(-c2ccccc2)cc2ccccc21
    -21, 3615, 4, 6, 5.2, 21, 13
Cc1cccc2cc(CN(CC3CCCO3)C(=O)c3cnccn3)c(=O)[nH]c12 (centres undefined)
    2, 3068, -6, 4, -13, -3, -5
C=CCN=c1scc(-c2ccco2)n1N=Cc1ccc(O)c(O)c1O
    ., ., ., 10, 15, 21, 8
O=C(CC1(O)C(=O)N(CCc2ccccc2)c2ccccc21)c1ccco1 (centres undefined)
    -7, 3222, -10, -5, -11, 4, 17
CCOC(=O)c1c(NC(=O)CCS(=O)(=O)c2ccccc2)sc2c1CC(C)(C)NC2(C)C
    -9, 4214, 0, 6, 3.7, 4, 2
C/C(=N/NC(=O)c1ccoc1C)c1cccc(NC(=O)C2CC2)c1
    -17, 2161, -1, ., ., ., .
Cc1ccc(C)n1-c1sc2c(c1C#N)CCC(C)C2 (centres undefined)
    -49, 2680, -2, 33, 6.5, ., .
CCS(=O)(=O)N1Cc2ccccc2CC1C(=O)Nc1nnc(SCc2ccc(F)cc2)s1 (centres undefined)
    -8, 2198, 2, 3, 8.1, 3, 4
COC(=O)c1c(-n2cnnn2)sc(C)c1C
    -9, 8141, -1, 2, -0.4, 2, -7
COc1cc(O)c(C(C)=O)cc1OC
    -1, 3532, 5, 4, -0.3, ., .
CCOc1ccc(NC(=O)CSc2nnc(COc3c(C)cccc3C)o2)cc1
    -16, 5582, -2, 4, 0.3, ., .
CCN(CC)S(=O)(=O)c1cccc(-c2nnc(SCCOc3ccccc3C)o2)c1
    -9, 3366, -7, 19, 4.5, 18, 15
Cc1ccc(CNC(=O)CCNS(=O)(=O)c2cccc3nsnc23)cc1
    -6, 5820, -5, 12, 5.1, -7, -3
CCOc1ccc(/C=N/NC(=O)C(=O)N2CCCCCC2)c2ccccc12
    -12, 4337, 3, ., ., ., .
CCN1CCN(C(=S)Nc2cccc(Cl)c2)CC1
    -10, 2066, 3, 12, 4.7, 15, -1
CC(C)NCc1nnc(-c2ccccc2Cl)o1
    -7, 3329, 11, 0, 4.5, 11, 5
CCCc1cc(=O)oc2cc(C)c3c(C)coc3c12
    -34, 8201, 2, -8, 13, 10, 5
COc1ccc(/C(N)=N/OC(=O)c2ccco2)cc1
    28, 4485, 8, 15, 9.9, 4, 17
CCOC(=O)C1=C(C)N(C)C(=S)NC1c1ccccc1Cl (centres undefined)
    -20, 3055, 7, 2, 3.3, ., .
C=CCOc1ccccc1CN1CCC(Oc2ccc(C(=O)N3CCCCC3)cc2)CC1
    -10, 6586, 4, 2, 0.1, 2, 13
O=C(NCc1ccco1)C1CC(=O)N(c2cccc(Cl)c2)C1 (centres undefined)
    3, 5172, 6, -4, 1.2, 17, 11
O=C(c1cccc(NC2=NC3CS(=O)(=O)CC3S2)c1)N1CCN(c2ncccn2)CC1 (centres undefined)
    -27, 5581, -7, -2, -1.6, 4, 15
CCCCN(CC)CCCNC(=O)c1ccc(CS(=O)(=O)c2ccccc2C)o1
    5, 3865, -2, 3, -1.6, 2, 8
COc1ccc(S(=O)(=O)N/N=C(/C)c2ccco2)cc1
    2, 4298, -3, ., ., ., .
Cc1ccc(S(=O)(=O)c2nnn3c2nc(N2CCN(c4ccccn4)CC2)c2ccccc23)cc1C
    2, 6399, 6, 6, 4.1, 5, -1
CCSc1nnc(-c2cccs2)o1
    -39, 10435, 3, -1, 5.1, 13, 11

Continuation:
Value order: PrP 5UTR inh, Bead autofluor, BJeLR viability, Sa ugtP lethal, RN4220 kill, Mtb hypoxia rep, Mtb hypoxia rep growth
COc1ccc(C2(CNC(=O)c3ccc(Br)o3)CCOCC2)cc1
    0, 2945, 4, -7, 5.8, 1, 5
COc1ccc2oc(=N)c(C(=O)Nc3ccc(C)cc3)cc2c1
    -32, 3307, 3, 7, 5.1, 2, -8
CCCCN1C(=O)/C(=C2\SC(N3CCOCC3)=NC2=O)c2ccccc21
    -48, 3822, -1, 7, -1.6, ., .
NC(=O)N1N=C2/C(=C/c3ccccc3)CCCC2C1c1ccccc1 (centres undefined)
    7, 6210, 1, 19, 7.8, 7, 9
CCOC(=O)c1ccc(-n2c(O)c(/C=N/NC(=O)C3COc4ccccc4O3)c3ccccc3c2=O)cc1 (centres undefined)
    -21, 2275, 16, 0, 31, -8, 12
OC(COCc1cccs1)CN1CCN(c2cccc(C(F)(F)F)c2)CC1 (centres undefined)
    -4, 2430, -5, 3, 1.1, 8, 5
O=c1c2ccccc2c(-c2ccccc2)nn1Cc1c(Cl)cccc1Cl
    1, 5267, 3, 96*, -13, 5, -4
C/C=C/C(=O)Nc1cccc(C2=NOC3(C2)C[C@@H](C(N)=O)N(C(=O)C(c2ccccc2)c2ccccc2)C3)c1 (some centres undefined)
    -18, 3685, 3, ., ., ., .
O=Cc1cc([N+](=O)[O-])ccc1N1CCOCC1
    -14, 2140, -13, 6, 5.9, 9, 2
N#CC1=C(N)n2c(sc(=Cc3cccs3)c2=O)=C(C#N)C1c1cccs1 (centres undefined)
    ., ., ., 1, -1.3, 6, 11

Random draw from the library. Share with any hit: about 4%.
